From PubChem
VCAM-1 up imaging: enhancers of VCAM-1 display on endothelial cells, imaging, high-content imaging, pooled HUVEC, TNFa stimulus (AID 457) | Pooled HUVEC, TNFa-induced VCAM-1 immunofluorescence imaging; hits of this screen are not shown here | calls only | 10,000 tested, 0.2% active;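 active = a top-ranked rise in VCAM-1 staining upheld on image or statistical review; inactive = the rest, including candidates rejected on review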;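 also: compounds tested at 5 µM in the well; cells exposed to compound for 24 hours before fixing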
FPR ligand: human FPR ligand, with FPRL1 counter-screen; P21462; FPR-expressing cells, fluorescent ligand binding, flow cytometry; inhibition, %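 (tested at 6.7 µM)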; 24,000 tested, 0.74% active;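 also: 0% = buffer wells and 100% = receptor blocker peptide wells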
Target sequence (P21462 whole entry, looked up): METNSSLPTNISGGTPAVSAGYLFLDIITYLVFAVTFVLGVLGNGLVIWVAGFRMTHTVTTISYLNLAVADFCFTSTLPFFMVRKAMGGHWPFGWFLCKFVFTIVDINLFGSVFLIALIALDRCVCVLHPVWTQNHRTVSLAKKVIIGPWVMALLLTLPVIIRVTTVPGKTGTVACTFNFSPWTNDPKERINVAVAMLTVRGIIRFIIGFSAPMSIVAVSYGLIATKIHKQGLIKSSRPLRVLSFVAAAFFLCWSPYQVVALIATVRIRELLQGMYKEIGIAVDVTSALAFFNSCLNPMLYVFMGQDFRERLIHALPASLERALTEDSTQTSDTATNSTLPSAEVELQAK
FPRL1 binder: binds the human formylpeptide receptor-like-1 FPRL1 | P25090 | FPRL1-expressing cells, fluorescent ligand binding inhibition, flow cytometry | inhibition, %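 (tested at 6.7 µM)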 | 24,000 tested, 0.3% active;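 also: 0% = buffer alone and 100% = receptor blocker peptide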
Target sequence (P25090 whole entry, looked up): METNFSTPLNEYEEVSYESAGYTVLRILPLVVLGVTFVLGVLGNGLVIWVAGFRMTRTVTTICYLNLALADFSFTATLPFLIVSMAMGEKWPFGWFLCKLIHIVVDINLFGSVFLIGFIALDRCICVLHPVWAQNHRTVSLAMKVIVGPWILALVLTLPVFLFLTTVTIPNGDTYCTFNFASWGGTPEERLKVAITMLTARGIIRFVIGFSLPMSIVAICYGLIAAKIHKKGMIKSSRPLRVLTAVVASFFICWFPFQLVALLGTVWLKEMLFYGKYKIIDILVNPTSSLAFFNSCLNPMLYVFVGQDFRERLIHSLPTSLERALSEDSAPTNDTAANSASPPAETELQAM
VCAM-1 imaging: inhibitors of TNFa-induced VCAM-1 surface display, imaging, high-content imaging, pooled HUVEC, TNFa stimulus (AID 456); HUVEC TNFa-induced VCAM-1 surface expression, immunofluorescence imaging; numbers were filed only for top-ranked candidate wells; inhibition, % at 5 µM, or IC50 in µM where a hit was titrated; 10,000 tested, 0.2% active;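 active = top tenth filtered wells with inhibition above zero that passed visual or statistical confirmation; inactive = the rest, including hits rejected on review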;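 also: 0% = stimulated vehicle wells and 100% = unstimulated cells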
VCAM-1 down: suppression of endothelial VCAM-1 upregulation – cell-based, plate reader, pooled HUVEC, TNFa stimulus (AID 454) | HUVEC TNFa-induced VCAM-1 surface immunofluorescence, plate reader; numbers were filed only for top-ranked candidate wells | inhibition, % at 5 µM | 10,000 tested, 0.2% active;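 active = compound among top-ranked inhibitors of TNF-induced VCAM-1 adhesion protein staining, with the hit upheld by image or statistical review; inactive = the rest, including hits rejected on review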;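 also: 0% = TNFa with vehicle and 100% = cells without TNFa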
Active calls of the source: *; i = inactive; / = no result given.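 The calls were made as follows, unless noted: active = mean above 30%; inconclusive = self-fluorescent; inactive = the rest.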 This is a subset; rates above refer to the full screens.

SMILES | VCAM-1 up imaging | FPR ligand | FPRL1 binder | VCAM-1 imaging | VCAM-1 down
O=C(O)c1[nH]c2ccc(Cl)cc2c1CC(=O)N1CCN(c2ccccc2)CC1 | / | -2.7 | 5.9 | / | /
CC(C)NC(=O)CSc1nnc(-c2ccc(C(C)(C)C)cc2)n1C | i | -5.2 | 3.6 | i | i
C=CCOc1nc(N2CCCC2)nc(N2CCCC2)n1 | i | 2.1 | -1.5 | i | i
O=C(c1cc2ccccn2n1)N1CCN(c2cccc(C(F)(F)F)c2)CC1 | / | 6.7 | -0.7 | / | /
CCOc1ccc(NC(=O)CN2CCN(CC(=O)Nc3ccc(C(=O)OC)cc3)CC2)cc1 | / | 3.6 | -0.9 | / | /
Cc1cc(Nc2cccc(C)c2C)n2ncnc2n1 | / | -3.1 | -0.1 | / | /
Cc1ccc(CCNC(=O)C2CCN(S(=O)(=O)N3CCCC3)CC2)cc1 | / | -3.8 | -8.1 | / | /
CCn1cc(C2=NC(c3ccccc3)CO2)c2ccccc21 (configuration not stated) | / | -1.1 | -3.5 | / | /
COc1ccccc1C1N(c2ccc(F)cc2)C(=O)C2CCCN21 (configuration not stated) | i | 6.6 | -1.6 | i | i
CC1=C(C(N)=O)C(c2cccc(O)c2)n2nc(CCCO)nc2N1 (configuration not stated) | / | -4.5 | 0.4 | / | /
CCOC(=O)CSC1=C(C#N)C(c2ccc3c(c2)OCO3)CC(=O)N1 (configuration not stated) | i | -5.5 | -0.3 | i | i
CCCN1Cc2cccc(C(=O)NCc3cccs3)c2C1=O | i | -8.0 | 0.4 | i | i
Cn1c(SCc2nnc3n2CCCCC3)nc2ccccc21 | i | -2.8 | -0.1 | i | i
CC(C)CC(NC(=O)OC(C)(C)C)C(=O)NC(C(=O)NC(C)C(N)=O)C(C)C (configuration not stated) | i | -0.9 | 1.8 | i | i
CCN(CC)CCNC(=O)c1ccccn1 | / | 5.4 | 4.7 | / | /
O=S(=O)(NC1CCCC1)c1ccccc1Cl | i | -0.8 | 1.7 | i | i
CCOc1ccc(-c2nc(C#N)c(N3CCOCC3)o2)cc1 | / | 6.4 | -5.5 | / | /
COc1ccc(CNC(=O)Cn2nc(C(F)(F)F)c3c2CCC3)cc1 | i | 0.6 | 2.3 | i | i
CN(CC(=O)NCc1cccs1)S(=O)(=O)c1cccc2nsnc12 | / | 15.5 | 14.3 | / | /
Nc1c(C(=O)NCc2ccccc2)nnn1Cc1cccc(Cl)c1 | / | 8.1 | -4.7 | / | /
CCOC(=O)c1nnn(-c2nonc2N)c1CN1CCc2ccccc2C1 | i | 7.7 | -0.2 | i | i
CC1CCCC(NC(=O)c2ccc3c(=O)n(CC4CCCO4)c(=O)[nH]c3c2)C1C (configuration not stated) | / | -4.1 | -0.3 | / | /
CC(=O)c1ccc(NC(=O)CCNS(=O)(=O)c2cccc3nonc23)cc1 | / | 1.7 | -0.6 | / | /
COc1ccc(-c2noc(CCC(=O)NCCN3CCN(c4ccccc4F)CC3)n2)cc1 | / | -0.8 | -0.9 | / | /

12 structures already listed, sorted by formula weight, lowest first:
SMILES | VCAM-1 up imaging | FPR ligand | FPRL1 binder | VCAM-1 imaging | VCAM-1 down
CCOc1ccc(-c2nc(C#N)c(N3CCOCC3)o2)cc1 | / | 6.4 | -5.5 | / | /
Cn1c(SCc2nnc3n2CCCCC3)nc2ccccc21 | i | -2.8 | -0.1 | i | i
CCCN1Cc2cccc(C(=O)NCc3cccs3)c2C1=O | i | -8.0 | 0.4 | i | i
CC1=C(C(N)=O)C(c2cccc(O)c2)n2nc(CCCO)nc2N1 (configuration not stated) | / | -4.5 | 0.4 | / | /
Nc1c(C(=O)NCc2ccccc2)nnn1Cc1cccc(Cl)c1 | / | 8.1 | -4.7 | / | /
COc1ccc(CNC(=O)Cn2nc(C(F)(F)F)c3c2CCC3)cc1 | i | 0.6 | 2.3 | i | i
CCOC(=O)CSC1=C(C#N)C(c2ccc3c(c2)OCO3)CC(=O)N1 (configuration not stated) | i | -5.5 | -0.3 | i | i
CCOC(=O)c1nnn(-c2nonc2N)c1CN1CCc2ccccc2C1 | i | 7.7 | -0.2 | i | i
CC(=O)c1ccc(NC(=O)CCNS(=O)(=O)c2cccc3nonc23)cc1 | / | 1.7 | -0.6 | / | /
CC1CCCC(NC(=O)c2ccc3c(=O)n(CC4CCCO4)c(=O)[nH]c3c2)C1C (configuration not stated) | / | -4.1 | -0.3 | / | /
CC(C)CC(NC(=O)OC(C)(C)C)C(=O)NC(C(=O)NC(C)C(N)=O)C(C)C (configuration not stated) | i | -0.9 | 1.8 | i | i
COc1ccc(-c2noc(CCC(=O)NCCN3CCN(c4ccccc4F)CC3)n2)cc1 | / | -0.8 | -0.9 | / | /

Continuation:
SMILES | VCAM-1 up imaging | FPR ligand | FPRL1 binder | VCAM-1 imaging | VCAM-1 down
CC(C)(C)C1CCC2(CC1)NC(CO)(CO)CO2 (configuration not stated) | / | 0.8 | 3.2 | / | /
CCc1ccc(NC(=O)c2cc(CC(C)C)on2)cc1 | / | -0.9 | 3.6 | / | /
O=C1c2ccccc2C(O)N1Cc1ccc2c(c1)OCO2 (configuration not stated) | / | -0.2 | -1.5 | / | /
Cc1nc2sc(C(c3ccco3)N3CCN(c4ccccc4F)CC3)c(O)n2n1 (configuration not stated) | i | -1.7 | -1.7 | i | i
Cn1c(C(F)(F)F)nc2c(=O)oc3ccccc3c21 | / | 0.0 | 3.5 | / | /
CCN1C(=O)c2ccccc2S(=O)c2ccc(C(=O)NCc3ccccn3)cc21 (configuration not stated) | / | -4.4 | -5.8 | / | /
Cc1noc(C)c1CSc1nc2ccccc2s1 | i | -9.0 | -3.3 | i | i
Cc1nnc2ccc(N3CCN(C(=O)c4ccccc4)CC3)nn12 | / | -5.3 | 0.9 | / | /
c1cnc(NCCNc2ncccn2)nc1 | i | 3.6 | -2.3 | i | i
CCc1ccccc1N(CC)C(=O)CCc1nc(-c2ccc(C)cc2)no1 | / | -1.6 | 1.5 | / | /
COc1cccc(-c2nnc(SCC(=O)N3CCCc4ccccc43)o2)c1 | i | -3.2 | 5.2 | i | i
c1ccc(-c2csc(N3CCCCCC3)n2)cc1 | i | -12.5 | -10.3 | i | i
Cc1ccc2nc(NC(=O)C3CCCN(S(=O)(=O)c4cnc[nH]4)C3)sc2c1 (configuration not stated) | i | -3.3 | -4.5 | i | i
CCOCC(O)CS(=O)Cc1ccccc1 (configuration not stated) | i | 5.1 | -2.5 | i | i
O=C(NCCC1=CCCCC1)C1CCN(Cc2cnn(-c3ccccc3)c2-n2cccc2)CC1 | / | -20.8 | 2.2 | / | /
CN(C)c1ccc(NC(=O)CSc2nc3ccccc3c(=O)n2C2CCCCC2)cc1 | / | -4.8 | -4.7 | / | /
CCCN1CCN(CCCNC(=O)C2CCN(c3nnc(-n4cccc4)s3)CC2)CC1 | / | 0.2 | 3.9 | / | /
CCc1nc2sc(C)c(C)c2c(=O)n1CCO | i | 1.1 | -2.6 | i | i
Cc1cc(NC(=O)c2cc(CC(C)C)on2)n(-c2ccccc2)n1 | / | 1.1 | 0.3 | / | /
CCOC(=O)c1[nH]c2ccc(C)cc2c1N=C(C)N(C)C | i | -3.8 | -5.9 | i | i
FC(F)(F)C(Oc1nc(NC2CCCCC2)nc(N2CCOCC2)n1)C(F)(F)F | / | 0.8 | 1.4 | / | /
O=C1C2C3C=CC(C3)C2C(=O)N1Cc1ccccc1 (configuration not stated) | i | -5.7 | 1.4 | i | i
CCCc1cc(C(=O)N(C2CCCCC2)C2CCCCC2)no1 | / | 2.2 | 12.3 | / | /
Cc1n[nH]c(C)c1S(=O)(=O)N(CC(=O)Nc1ccc2c(c1)OCCO2)c1ccc(C(C)C)cc1 | / | -1.3 | -6.1 | / | /
COC(=O)Nc1nnc(CCc2ccccc2)s1 | i | 0.6 | 1.7 | i | i
Cc1ccc(C)c(N2CCN(C(=O)CN(C)S(=O)(=O)c3cnc[nH]3)CC2)c1 | / | 2.0 | 6.7 | / | /
CCOc1ccc(CCNC(=O)c2nnc(Cc3ccc(F)cc3)o2)cc1OCC | / | 1.8 | -0.1 | / | /
CCOC(=O)c1[nH]c2ccccc2c1NC(=O)CCN1CCN(C(=O)OCC)CC1 | i | -5.3 | -6.7 | i | i
CCOc1cc(C2C(C(=O)OCC(C)C)=C(C)N=C3SCCC(=O)N32)ccc1OC(C)=O (configuration not stated) | / | 0.4 | -4.9 | / | /
COc1ccc(C2CC(c3cccc(Cl)c3)n3nc(N)nc3N2)cc1 (configuration not stated) | / | 1.3 | 8.1 | / | /
O=C(NCc1ccccn1)Nc1ccc2c(c1)OCO2 | i | -4.9 | 1.9 | i | i
Cc1cc2ccccn2c1C(=O)c1ccncc1 | i | 1.8 | -0.8 | i | i
Cc1ccccc1N1OC2C(=O)N(c3ccc(F)cc3)C(=O)C2C1c1ccccn1 (configuration not stated) | i | 5.4 | -5.9 | i | i
CCc1nnc(SCC(=O)NC2CCCCC2)nc1CC | i | 1.2 | 0.3 | i | i
Cc1ccc(C(c2sc3nc(C)nn3c2O)N2CCN(c3ccccc3)CC2)cc1 (configuration not stated) | / | -1.3 | -4.6 | / | /
O=C(CSc1nnc(Cn2c(=O)sc3ccccc32)n1-c1ccccc1)N1CCCC1 | / | -5.8 | 1.8 | / | /
O=c1[nH]c(NCc2ccco2)nnc1Cc1ccccc1Cl | i | 6.0 | 7.1 | i | i
Nc1c(C(=O)Nc2ccc3c(c2)OCCO3)nnn1CCc1ccccc1 | / | 4.4 | -1.3 | / | /
Cc1c(NC(=O)c2ccc(N3C(=O)C4C5C=CC(C5)C4C3=O)cc2)c(=O)n(-c2ccccc2)n1C (configuration not stated) | / | -1.8 | 0.5 | / | /
CCCN(CCC)C(=O)CSc1nc2ccccc2c(=O)n1C1CCCC1 | i | 6.9 | -1.9 | i | i
CCC(C)C(NC(=O)C1CCC(C)CC1)C(=O)NCc1cccnc1 (configuration not stated) | i | -0.2 | 5.0 | i | i
C/C(N)=C(/C#N)C(=O)COC(=O)COc1ccc(Cl)cc1 | i | 0.9 | 6.7 | i | i
COc1ccc(Br)cc1CNC(=O)C1CCN(S(=O)(=O)N2CCCC2)CC1 | / | -9.1 | -2.5 | / | /
Cn1nnnc1SCC(=O)N1CCN(c2ccccc2)CC1 | i | -3.9 | -3.6 | i | i
O=C(NCCN1CCOCC1)c1cc2sccc2n1Cc1ccc(Cl)cc1 | / | 0.6 | 0.7 | / | /
CCCn1c(SCC(=O)N2CCc3ccccc3C2)nc2c1c(=O)n(C)c(=O)n2C | i | -8.2 | 7.0 | i | i
NC(=O)C1CCN(C(=O)C2c3ccccc3C(=O)N3CCc4ccccc4C23)CC1 (configuration not stated) | / | -1.5 | -4.4 | / | /
COCCNC(=O)C(c1ccc(O)cc1)N(Cc1ccco1)C(=O)CCC(=O)Nc1nccs1 (configuration not stated) | i | -3.1 | 1.7 | i | i
CCN1C(=O)c2cccc3c(S(=O)(=O)Nc4ccccc4OC)ccc1c23 | / | -17.9 | 1.8 | / | /
Cc1ccc(-c2nc3cc(NC(=O)C(C)C)ccc3o2)cc1C | i | -3.2 | -6.4 | i | i
O=C(OCn1nnc2ccccc2c1=O)c1ccc(Br)o1 | / | -0.5 | 1.4 | / | /
O=C(CSc1nc(N2CCCCC2)nc(N2CCCCC2)n1)Nc1nccs1 | i | 6.8 | -4.9 | i | i
CCOc1ccc(N(CC(=O)NC(C)CC)S(=O)(=O)c2c(C)noc2C)cc1 (configuration not stated) | / | -2.3 | -2.8 | / | /
Cc1c(C(=O)OCCOc2ccccc2)[nH]c2c1C(=O)CCC2 | / | 9.7 | 8.9 | / | /
O=C(Nc1ccc(Nc2ccccc2)cc1)c1ccc(Br)o1 | / | 17.8 | 34.2* | / | /
Cc1cc2cc(CNC(=O)Nc3ccccc3)ccc2n1C | / | -6.8 | 3.3 | / | /
CCOc1ccc(CNC(=O)CCn2c(=O)oc3ccccc32)cc1OC | / | -3.4 | -1.6 | / | /
O=C(Nc1nncs1)c1ccccc1NS(=O)(=O)c1cccs1 | i | 1.2 | 1.0 | i | i
COc1ccc(-c2cc(C(=O)N3CCN(Cc4ccccc4)CC3)no2)cc1OC | i | -0.3 | -2.2 | i | i
O=C(NCc1ccccc1)c1c[nH]c2ccc(S(=O)(=O)Nc3ccc4c(c3)OCCO4)cc2c1=O | / | 10.6 | 16.3 | / | /
O=C1c2ccccc2C(=O)N1CC(O)COCc1ccccc1 (configuration not stated) | / | 1.5 | 4.1 | / | /
CC(C)COC(=O)C1C(=O)CC(C)(O)C(C(=O)OCC(C)C)C1c1cccnc1 (configuration not stated) | / | 1.3 | 1.3 | / | /
Cc1ccccc1-c1c(C)oc2cc(O)ccc2c1=O | / | 4.4 | -2.9 | / | /
